ClpP mod: qHTS Assay for Activators of ClpP. ATP-dependent Clp protease proteolytic subunit (Bacillus subtilis (strain 168)), P80244. purified B. subtilis ClpP, FRET peptide cleavage, 20 min. Potency, µM (series often up to 57.5 µM), for the others: at the highest dose activity change, negative = active. 340,000 tested, 1.9% active. AID 651965, 2013; active = well fitted falling curve with a large enough effect; inconclusive = small, poorly fitted or top-dose-only effect; inactive = no such curve, though single readings can be large or run the other way; note: potency is the fitted concentration of half-maximal effect; the source files actives as falling curves though it sought activators and does not explain the sign; nearly all actives have a fitted effect of over 65% in size; many hits overshoot -100%
Target sequence (P80244 whole entry, looked up): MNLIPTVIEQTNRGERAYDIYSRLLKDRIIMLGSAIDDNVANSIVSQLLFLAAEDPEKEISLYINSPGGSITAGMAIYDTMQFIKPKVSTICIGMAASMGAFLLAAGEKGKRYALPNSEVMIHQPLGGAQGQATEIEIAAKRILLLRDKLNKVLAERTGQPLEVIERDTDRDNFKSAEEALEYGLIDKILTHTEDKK
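ClpP 10 microg/mL final, pH 8 Tris/KCl buffer with BSA, glycerol, Tween-20; compound pinned in; FRET-FV substrate; RT 20 min; Ex320/Em430; ΔFRET vs ADEP 5.8 microM, DMSO, no enzyme.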
Menin-MLL FL inh: menin-MLL binding inhibition, fluorescein peptide; FP activity change, % at 61.4 µM; Fluorescence polarization, fluorescein-MLL peptide displacement from menin; AID 1766; 290,000 tested, under 10 active; inconclusive = falling polarisation curve, or a change in total fluorescence; inactive = total fluorescence flat and polarisation flat or rising; no compound was filed as active; the % refers to the polarisation; negative = inhibition;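 note: % of control where 0% means no effect; inhibitors lower the polarisation; unlabelled MLL peptide was the positive control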
TRPML1 agonist: human mucolipin-1 channel agonism. 410,000 tested, 0.12% active. AID 624414. TRPML1-expressing cells, Ca2+ dye fluorescence, FDSS; host cell line not named in the record; reference of the full effect not given here. activation, % (concentration not given with the values); in the data active = activation above about 50%; inconclusive = about 30% to 50%; inactive = below about 30%; note: 0% is about no effect; the text of the record puts the active cut at 80%
Target sequence (Q9GZU1 whole entry, looked up): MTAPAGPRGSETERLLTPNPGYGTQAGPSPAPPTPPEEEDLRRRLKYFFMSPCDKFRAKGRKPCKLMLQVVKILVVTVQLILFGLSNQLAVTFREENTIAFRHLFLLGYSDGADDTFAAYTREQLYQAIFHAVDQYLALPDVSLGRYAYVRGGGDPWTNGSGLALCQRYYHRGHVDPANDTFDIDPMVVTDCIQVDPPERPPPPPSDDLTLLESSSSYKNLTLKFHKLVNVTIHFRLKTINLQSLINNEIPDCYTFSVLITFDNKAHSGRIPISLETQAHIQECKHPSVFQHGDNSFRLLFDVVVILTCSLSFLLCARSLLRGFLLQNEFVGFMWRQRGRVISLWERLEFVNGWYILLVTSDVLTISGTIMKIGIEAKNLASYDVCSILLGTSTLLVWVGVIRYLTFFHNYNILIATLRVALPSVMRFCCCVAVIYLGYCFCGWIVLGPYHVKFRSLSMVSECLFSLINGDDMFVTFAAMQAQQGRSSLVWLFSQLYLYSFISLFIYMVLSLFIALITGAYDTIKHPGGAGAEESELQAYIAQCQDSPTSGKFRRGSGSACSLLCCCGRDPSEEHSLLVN
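Cells: TRPML1-DL, 1X Tet inducer, ~16 h at 37 degrees C/5% CO2. Dye: ABD Ca8 no-wash + quencher, 45-90 min RT. Read: 10 s baseline, compound add, 110 s agonist phase; 54-4 EC80 (4uM final), 110 s antagonist phase.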
TRPML1 blocker: blocks the human TRPML1 channel; Q9GZU1; TRPML1-inducible cells, Ca2+ dye fluorescence, FDSS; stronger effect = lower value; inhibition of EC80 agonist-evoked calcium signal; activity change, negative = inhibition, % (no concentration beside the values); 390,000 tested, 0.02% active; AID 624415; in the data active means activity change below about -50%; inconclusive means about -30% to -50%; inactive means above about -30%;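 note: stimulus is agonist 54-4 at its EC80 concentration; % is set by controls: 0 for no effect and ±100 for the full control effect; compound concentration not given in the record; the text of the record puts the active cut at -80%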
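TRPML1-DL cells, Tet-induced overnight (~16 h, 37 °C) at 1,500 cells/well, were loaded with Ca8 no-wash dye plus quencher for 45-90 min at room temperature. Compounds were pinned during FDSS kinetic reading; agonist 54-4 at EC80 (4 uM final) then added.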
gsp agonist: agonists of gsp mutant (McCune-Albright syndrome). AID 624287. gsp mutant cells, cAMP HTRF, 30 min; control for the full effect not named in the record. 340,000 tested, 0.13% active. Potency, µM (highest dose often 76.9 µM), inactives show at the top dose activation (cAMP increase), hits mostly activators; active = well fitted activation curve with a large enough effect; inconclusive = small, poorly fitted or top-dose-only effect, or another doubt; inactive = no such curve, though single readings can be large or run the other way; cell line not stated here;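 note: phosphodiesterase inhibitor Ro 20-1724 added with compounds to block cAMP breakdown; potency is the fitted concentration of half-maximal effect; nearly all actives have a fitted effect of over 60% in size; about a fifth of the inactives were tested at one dose only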
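Cells stably selected in G418 were plated at 2000/well, grown 16-24 hr, then given compounds in DMSO with the PDE inhibitor […] (300 uM solution added) for 30 min at 37C; cAMP was read by HTRF.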
gsp antag: antagonists of gsp mutant (McCune-Albright syndrome) | AID 624288 | Potency, µM (top dose mostly 76.9 µM), inactives show at the top dose activity change, negative = inhibition, usual class: inhibitors | 340,000 tested, 0.4% active | gsp-mutant cells, cAMP HTRF, 30 min; control for the full effect not named in the record; active = falling curve of any shape with a large fitted effect; inconclusive = falling curve, mostly with a smaller effect; inactive = flat or rising curve; cell line not stated here;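 note: intracellular cAMP measured with PDE inhibitor Ro 20-1724 present during compound exposure; potency is the fitted concentration of half-maximal effect; % is set by controls: 0 for no effect and ±100 for the full control effect; nearly all actives have a fitted effect of over 65% in size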
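Measurement of cellular cAMP by homogeneous time-resolved fluorescence following a 30 min compound exposure at 37C. The PDE inhibitor […] was present throughout; the assay buffer was DPBS with 0.05% BSA and 0.005% Tween 20.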
* hit, by the source's call; ? = inconclusive; nt = not tested or not shown; & = joins results of further samples; [ ] = remark or other dose. Rows were taken by chance; overall some 2.1% were active at least once.

SMILES	ClpP mod	Menin-MLL FL inh	TRPML1 agonist	TRPML1 blocker	gsp agonist	gsp antag
Cc1c(Cl)cccc1NC(=O)c1ccc(C(=O)Nc2cccc(Cl)c2C)cc1	0.3%	nt	-0.3	-11	nt	nt
Cc1ccccc1NC(=O)c1ccc(CN(c2ccccc2)S(=O)(=O)c2ccccc2)cc1	1.7%	4.5	-0.1	75	?	-5%
c1ccc(Cc2noc(CN3CCCC(CN4CCOCC4)C3)n2)cc1 (stereo not drawn)	-2.4%	0.2	-0.4	-2	-9%[15.4 µM]	3%
Cc1sc(NC(=O)c2ccco2)c(CN2CCCCC2)c1C	2.1%	1.4	0.1	-5	?	5%
COc1ccccc1C(=O)NC(=O)COC(=O)CCOc1cc(C)ccc1C	-3.1%	2.0	1.8	-5	-14%	-6%
COc1ccc(OC)c2c(C)cc(N3CCN(C(=O)c4ccc(Cl)cc4)CC3)nc12	?	-0.2	2.0	-2	-36%[inhibitor]	-9%
C=CCNC(=O)c1n[nH]c2c1CC(C(C)(C)CC)CC2 (stereo not drawn)	-1.7%	nt	0.1	-8	nt	-12%
CCOc1ccc(Br)cc1C1C(C(=O)Nc2ccccc2OC)=C(C)Nc2nnnn21 (stereo not drawn)	-2.5%	nt	0.3	13	nt	nt
CC1CCN(S(=O)(=O)c2ccc3c(c2)c(=O)c(C(=O)N2CCN(c4cccc(Cl)c4)CC2)cn3C)CC1	-0.5%	nt	-0.8	0	nt	nt
CCOc1ccccc1-n1cnc2cc(C(=O)NCc3ccco3)ccc21	-3.1%	3.3	1.6	3	-30%	-5%
COC(=O)[C@H](C)NC(=O)NCc1ccccc1	nt	4.1	0.2	-1	14%[15.4 µM]	4%
Nc1ncnc2c1ncn2[C@@H]1O[C@H](CNC(=O)[C@@H](N)C2CCCCC2)[C@@H](O)[C@H]1O	1.6%	nt	-0.5	6	nt	13%
CN(C(=O)c1cccc(NC(=O)Cc2cccc(NC(=O)C3CCN(C(=O)C4CC4)CC3)c2)c1)C1CCC1	0.3%	nt	1.6	5	nt	5%
Cc1cc(N2CCOCC2)nc2ccc(NC(=S)NC(C)C)cc12	3.9%	-11	-0.2	34	-1%	-7%
C=CCNC(=O)c1ccc2c(c1)nnn2C	-2.8%	0.7	0.2	-26	-16%	6%
S=C(c1ccccc1)N1CCSCC1	-1.6%	-3.4	0.6	9	-14%	10%
COc1ccc(N(CC(=O)NCc2ccccc2Cl)S(=O)(=O)c2c(C)n[nH]c2C)cc1	0.2%	nt	-0.4	-2	-28%	8%
O=C(N/N=C/c1ccc(Cl)cc1Cl)c1ccc2nc[nH]c2c1	-3.0%	nt	1.1	14	9%	-4%
S=C(NCCc1ccccn1)Nc1cc(Cl)cc(Cl)c1	nt	1.8	2.7	10	-8%	-5%
CC1=C(C(=O)OC2CCCC2)C(c2coc3ccccc3c2=O)C2=C(CC(C)(C)CC2=O)N1 (stereo not drawn)	-1.0%	3.0	nt	nt	29%	-17%
Cn1cc(SCC(N)=O)c2ccccc21	0.6%	0.6	-0.2	4	-58%[inhibitor]	-2%
O=C(/C=C/c1ccc(Cl)cc1)NC(=S)Nc1ccccc1C(=O)O	1.0%	-1.2	0.6	9	26%	-4%
CCn1ncc([N+](=O)[O-])c1C(=O)N1CCCC1	-0.7%	0.1	0.1	6	-8%	7%
COC(=O)c1c(C)[nH]c(C(=O)OCC(=O)c2ccc(C)s2)c1C	nt	nt	-0.4	6	12%	-13%
COc1ccc(N2CCN(C(=O)CSc3n[nH]c(-c4ccccc4)n3)CC2)cc1	-0.3%	nt	-0.4	6	nt	nt
Cc1cc(C)cc(NC(=O)c2ccc3nc[nH]c3c2)c1	1.3%	0.9	0.2	11	29%	?
CC(C)(CO)NCC(=O)Nc1cc(C(F)(F)F)cc(NC(=O)CNC(C)(C)CO)c1Cl	0.5%	2.5	-0.2	2	10%	11%
CC(c1ccccc1)n1c(CO)nc2ccccc21 (stereo not drawn)	0.8%	3.7	nt	nt	-19%	12%
Cc1cccc(NC(=O)[C@@H](CC(C)C)NC(=O)[C@@H]2Cc3ccccc3CN2)c1	-4.0%	nt	0.1	24	1%	6%
COc1ccc(OC)c(C(C(=O)NCc2ccco2)N(C(=O)Cn2nnc3ccccc32)C(C)C)c1 (stereo not drawn)	-3.2%	2.7	0.8	-4	7%	-6%
CC1CCCCN1C(=O)CSc1nc2ncccc2[nH]1 (stereo not drawn)	-6.3%	nt	0.2	2	?	5%
Nc1ncn(C(=O)c2ccco2)n1	-1.3%	3.3	-0.1	-3	-23%	7%
Cc1cc(C)c(NC(=O)C2CCC(=O)N2)c(C)c1 (stereo not drawn)	nt	-4.8	0.5	13	-5%	-17%
CCOC(=O)C1(CCCc2ccccc2)CCN(C(=O)CSC)CC1	nt	1.8	-1.0	7	-54%[inhibitor]	-5%
CCn1c(=O)c2sccc2n(CC(=O)NC2CCCCC2)c1=O	nt	-4.1	-0.2	-5	9%[15.4 µM]	5%
COc1ccc2oc(=O)c(-c3csc(/C(C#N)=C/c4ccc(F)cc4)n3)cc2c1	-1.3%	nt	-0.7	-19	nt	nt
NS(=O)(=O)c1cccc(NC(=O)CCSc2ccc(Cl)cc2)c1	-2.4%	2.7	-0.5	-1	29%	-2%
OC1(c2ccc(Cl)cc2)CCN(Cc2c[nH]c3ccccc23)CC1	1.7%	2.7&-2.6	2.2	-3	nt	8%
CC(C)(C)Nc1c2ccccc2nc2ccccc12	nt	-12	-0.3	5	26%[15.4 µM]	-5%
O=C(O)CCCC(=O)Nc1ccc(Cl)cc1	nt	0.9	1.7	16	-25%[15.4 µM]	1%
CCOC(=O)N1CCN(S(=O)(=O)c2ccc(-n3cnnn3)cc2)CC1	nt	nt	0.3	4	4%	6%
CC(C)N(Cc1cnn(C)c1)C(=O)C1CCC(=O)N(CCc2cccc(F)c2)C1 (stereo not drawn)	-1.8%	nt	0.6	11	23%	5%
O=C(O)c1cc(-c2ccc(Br)s2)nc2ccccc12	3.3%	11	0.3	-5	?	-13%
COc1ccc(C(=O)NC2CC(C)(C)Cc3c2cnn3-c2ccccc2C)o1 (stereo not drawn)	-1.7%	nt	0.0	7	0%[15.4 µM]	1%
O=C(NC1CCCC1)C1CCN(S(=O)(=O)c2cccc3cccnc23)CC1	-2.6%	0.2	0.1	-4	-23%	5%
COc1ccc([C@H]2/C=C\CN(S(=O)(=O)c3cccc4cccnc34)[C@@H](C)C(=O)N2Cc2ccc(F)cc2)cc1	0.9%	nt	1.5	27	-33%[inhibitor]	-7%
Cc1cc(N2C3CCC2CC(O)(c2ccc(F)cc2)C3)nc(-c2ccccc2)n1 (stereo not drawn)	-9.7%	5.3	3.9	28	-1%	-21%
CN(C)N=Nc1ccc(S(=O)(=O)/N=C(\O)c2ccccc2)cc1	1.3%	3.3	-0.5	5	-11%	0%
COc1ccc(-c2[nH]ncc2CN2CCCO2)c(F)c1	-4.9%	0.3	-0.4	3	21%	3%
C#CCOCCOCCOCCNc1nc(N2CCN(C(=O)[C@H]([C@@H](C)CC)n3cc(CCCCN)nn3)CC2)nc(N2CCN(C(=O)[C@H](CCCCN)n3cc(CCCC)nn3)CC2)n1	0.9%	nt	-0.6	-10	nt	6%
Cc1ccc(OC(C)C(=O)N2CC(=O)Nc3ccccc32)cc1 (stereo not drawn)	nt	?	1.2	-7	?	5%
Cc1cc(C(C#N)c2ccccc2)n2ncnc2n1 (stereo not drawn)	13%	0.0	-0.8	-3	-30%	-2%
Clc1ccccc1-c1nc2nc3ccccc3nc2n1-c1ccc2c(c1)OCO2	-8.7%	nt	1.4	6	-4%[15.4 µM]	-28%
O=C(NCC(c1ccco1)N1CCN(c2ccccc2)CC1)c1cccs1 (stereo not drawn)	-2.4%	nt	1.2	-23	6%	1%
CC(C)(C)c1ccc(C(CC(=O)O)NC(=O)C23CC4CC(CC(C4)C2)C3)cc1 (stereo not drawn)	-0.3%	?	0.2	-14	?	-8%
O=C(NC1CCCc2c1cnn2-c1cc(F)cc(F)c1)c1ccc[n+]([O-])c1 (stereo not drawn)	0.5%	nt	-0.1	11	?	?

A run of entries from further up:
SMILES	ClpP mod	Menin-MLL FL inh	TRPML1 agonist	TRPML1 blocker	gsp agonist	gsp antag
COc1ccc([C@H]2/C=C\CN(S(=O)(=O)c3cccc4cccnc34)[C@@H](C)C(=O)N2Cc2ccc(F)cc2)cc1	0.9%	nt	1.5	27	-33%[inhibitor]	-7%
Cc1cc(N2C3CCC2CC(O)(c2ccc(F)cc2)C3)nc(-c2ccccc2)n1 (stereo not drawn)	-9.7%	5.3	3.9	28	-1%	-21%
CN(C)N=Nc1ccc(S(=O)(=O)/N=C(\O)c2ccccc2)cc1	1.3%	3.3	-0.5	5	-11%	0%
COc1ccc(-c2[nH]ncc2CN2CCCO2)c(F)c1	-4.9%	0.3	-0.4	3	21%	3%
C#CCOCCOCCOCCNc1nc(N2CCN(C(=O)[C@H]([C@@H](C)CC)n3cc(CCCCN)nn3)CC2)nc(N2CCN(C(=O)[C@H](CCCCN)n3cc(CCCC)nn3)CC2)n1	0.9%	nt	-0.6	-10	nt	6%
Cc1ccc(OC(C)C(=O)N2CC(=O)Nc3ccccc32)cc1 (stereo not drawn)	nt	?	1.2	-7	?	5%
Cc1cc(C(C#N)c2ccccc2)n2ncnc2n1 (stereo not drawn)	13%	0.0	-0.8	-3	-30%	-2%
Clc1ccccc1-c1nc2nc3ccccc3nc2n1-c1ccc2c(c1)OCO2	-8.7%	nt	1.4	6	-4%[15.4 µM]	-28%
O=C(NCC(c1ccco1)N1CCN(c2ccccc2)CC1)c1cccs1 (stereo not drawn)	-2.4%	nt	1.2	-23	6%	1%
CC(C)(C)c1ccc(C(CC(=O)O)NC(=O)C23CC4CC(CC(C4)C2)C3)cc1 (stereo not drawn)	-0.3%	?	0.2	-14	?	-8%
O=C(NC1CCCc2c1cnn2-c1cc(F)cc(F)c1)c1ccc[n+]([O-])c1 (stereo not drawn)	0.5%	nt	-0.1	11	?	?

Screening data (PubChem BioAssay)
